Compound activity (PubChem BioAssay)
LANA-H2B inh = blocks KSHV LANA binding to histone H2A/H2B. Q9QR71. cell-free LANA-H2A/H2B peptide, fluorescence polarization. inhibition, % (concentration not given with the values). hit rate 0.6% among 320,000. AID 2629; in the data active means inhibition mostly above about 10%, no sharp cut-off; inactive means mostly below about 6.7%;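 further: stock transfer was 7.5 nL into about 10 µL; 0% = median of vehicle wells and 100% = median of positive control wells; one replicate is shown; the record names a cut of 25% in any replicate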
UCH37 inh = human UCH37 deubiquitinating enzyme inhibition. Q9Y5K5. purified proteasome/UCH37, Ub-AMC cleavage fluorescence. inhibition, % (concentration not given with the values). hit rate 0.33% among 330,000;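 active means mean of two replicates above 20%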;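 further: 0% = compound-free wells with enzyme and 100% = wells lacking proteasome; stock transfer was 100 nL into about 20 µL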
Target sequence (Q9Y5K5 whole entry, looked up): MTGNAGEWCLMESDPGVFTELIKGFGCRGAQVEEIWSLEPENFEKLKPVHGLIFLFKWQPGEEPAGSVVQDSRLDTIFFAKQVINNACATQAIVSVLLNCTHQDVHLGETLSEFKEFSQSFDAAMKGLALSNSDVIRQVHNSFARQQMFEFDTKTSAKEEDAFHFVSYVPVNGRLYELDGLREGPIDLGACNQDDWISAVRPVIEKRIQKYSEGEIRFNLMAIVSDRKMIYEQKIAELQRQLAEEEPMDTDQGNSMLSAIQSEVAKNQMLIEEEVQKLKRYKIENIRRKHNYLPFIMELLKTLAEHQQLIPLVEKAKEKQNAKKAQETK
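Assay system: Proteasome-bound UCH37. Buffer or medium: pH 7.4 Tris-HCl (50 mM) with ovalbumin, ATP-MgCl2, DTT. Incubation: 30 min preincubation with enzyme, 25 min cleavage at room temperature. Measured by: fluorescence, ex 355 nm, em 460 nm. Read-out basis: percent inhibition. Control set: wells without proteasome as full block, compound-free enzyme plus substrate as uninhibited.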
FGF22 binding = shifts melting point of recombinant human FGF22. hit rate 1.5% among 340,000. recombinant FGF22 thermal shift, SYPRO orange fluorescence; percent of sucrose octasulfate shift, DMSO zero. Q9HCT0. calls only at 9.99 µM;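 active means melting point raised past a set limit in the mean and every replicate; inconclusive means no clear call; three in four hits are not shown here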
Target sequence (Q9HCT0 whole entry, looked up): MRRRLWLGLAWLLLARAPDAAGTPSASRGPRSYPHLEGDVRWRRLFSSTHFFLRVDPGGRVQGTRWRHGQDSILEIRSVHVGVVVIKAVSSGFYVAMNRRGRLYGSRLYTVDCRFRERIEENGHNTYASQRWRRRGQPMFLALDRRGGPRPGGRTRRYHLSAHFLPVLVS
Ecoli growth = E. coli growth inhibition | Escherichia coli growth, OD600, 23 h; active compounds read low | hit rate 0.21% among 330,000 | OD600 absorbance (concentration not given with the values);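 active means OD600 absorbance below the run mean of sample wells minus 3.6 SD, in any replicate, cut at about 0.56 in these data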;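 further: stock transfer was 300 nL into about 60 µL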
HNF4A DNA FP = change in binding of human HNF4 alpha to DNA; P41235; hit rate 0.3% among 360,000; AID 1224865; activity change, % at 10 µM; HNF4a-FITC DNA binding, fluorescence polarization, 1 h; in the data active means activity change above about 30%, passing the limit was not always enough;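 further: controls were the assay level and a saturating level of protein; the project sought stronger binding though the title names inhibitors; some compounds called inactive have numbers as strong as hits; positive values seem to mean higher polarization but the record does not say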
B2AR ag = agonists of human beta-2 adrenergic receptor inducing internalization | hit rate 0.43% among 340,000 | P07550 | AID 504454 | Am2.2-beta2AR cells, FAP receptor internalization, flow cytometry; reference of the scale not given here | response, % (test concentration not listed);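 active means response above a set limit, near 3 SD of response in nonfluorescent compounds, cut at about 42% in these data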;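 further: stock transfer was 100 nL into about 11 µL; a reference agonist was the positive control; negative values mostly stem from fluorescent compounds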
ALR inh = human ALR oxidase inhibition via reduced H2O2; inhibition, % (concentration not given with the values); P55789; AID 485317; purified ALR, DTT oxidation, H2O2 HRP-luminol luminescence; hit rate 3.8% among 290,000;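 active means mean and each replicate at 75% or more; inconclusive means only one of the two met; inactive means neither met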;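 further: stock transfer was 7.5 nL into about 7.5 µL; 0% = neutral wells and 100% = wells with inactivated enzyme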
Target sequence (P55789 whole entry, looked up): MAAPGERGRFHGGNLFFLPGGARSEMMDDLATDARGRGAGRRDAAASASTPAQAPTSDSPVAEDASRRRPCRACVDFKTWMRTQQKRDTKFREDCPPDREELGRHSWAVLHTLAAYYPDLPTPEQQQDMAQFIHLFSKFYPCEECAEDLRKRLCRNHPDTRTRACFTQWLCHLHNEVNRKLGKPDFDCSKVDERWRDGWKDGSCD
* = called active by the depositor; i = inactive; ? = inconclusive; · = not tested or not shown; & = joins results of further samples. These rows are one share of the data; rates above refer to the full screens.

Start of the listing, in advance (three entries):
SMILES | B2AR ag | FGF22 binding | UCH37 inh | HNF4A DNA FP | ALR inh | Ecoli growth | LANA-H2B inh
CS(=O)(=O)n1nc(-c2ccc(Cl)cc2)nc1N | 3 | · | -0.6 | 0.0 | -4 | 0.67 | 5.5
CCCCOCP(=O)(CCCC)COCCCC | -6 | · | 6.3 | 2.1 | -7 | 0.75 | 4.4
Cc1ccc(C(=O)Nc2cccc(NC(=O)c3cccs3)c2)c(C)c1 | -7 | i | 1.2 | 1.1 | · | 0.64 | -1.4

This part in full, from the first entry:
SMILES | B2AR ag | FGF22 binding | UCH37 inh | HNF4A DNA FP | ALR inh | Ecoli growth | LANA-H2B inh
CS(=O)(=O)n1nc(-c2ccc(Cl)cc2)nc1N | 3 | · | -0.6 | 0.0 | -4 | 0.67 | 5.5
CCCCOCP(=O)(CCCC)COCCCC | -6 | · | 6.3 | 2.1 | -7 | 0.75 | 4.4
Cc1ccc(C(=O)Nc2cccc(NC(=O)c3cccs3)c2)c(C)c1 | -7 | i | 1.2 | 1.1 | · | 0.64 | -1.4
COc1cccc(C(=O)NCCC2=CCCCC2)c1 | 9 | · | 25* | 3.4 | 1 | 0.75 | -0.7
CC(C)OC(=O)CSc1nnc(-c2ccc(Cl)cc2Cl)n1N | 1 | · | 0.0 | 5.6 | 2 | 0.67 | -1.2
Cc1ccc(NC(=O)/C(=C\c2cccnc2)NC(=O)c2ccco2)cc1 | 2 | · | 5.3 | -1.2 | -2 | 0.72 | -2.9
COc1ccc(NC(=O)/C(=C\c2cccnc2)NC(=O)c2cccs2)cc1 | 5 | · | 3.2 | -3.3 | -11 | 0.65 | 0.9
Cn1nc(C(F)(F)F)c(C(=O)Nc2ccc(F)cc2F)c1Sc1ccc(C(F)(F)F)cc1 | -9 | i | 4.5 | -3.2 | · | 0.73 | ·
Cc1cc(C)c(C#N)c(SCC(=O)Nc2c(C)n(C)n(-c3ccccc3)c2=O)n1 | -4 | · | 2.2 | -2.6 | -12 | 0.72 | 8.3
CCOCCOC(=O)Cn1cnc2scc(-c3ccc(C)cc3)c2c1=O | 1 | i | 5.9 | 2.0 | -2 | 0.73 | -5.0
CN(C)c1ccc(/C=C/c2cccc[n+]2[O-])cc1 | -2 | i | · | 17 | ? | · | -2.8
CCn1nc(C(=O)OCC(=O)N(CCC#N)c2ccccc2)c2ccccc2c1=O | 10 | i | 3.4 | -2.5 | -9 | 0.66 | 0.3
COc1ccc(N=C(N(C)C)P(=O)(N(C)C)N(C)C)cc1 | -2&-4 | i | 5.8&1.1 | 1.0&-1.7 | 99* | 0.7&0.71 | 4.9
Cc1cccc(OCCCC(=O)Nc2nc3ccccc3[nH]2)c1 | -10 | i | 2.9 | 1.1 | -2 | 0.69 | -2.1
c1ccc(CNc2ncnc3ccccc23)cc1 | -8&-2 | i | 4.3&0.8 | -1.1&3.1 | -5&-8 | 0.65&0.61 | -3.8&4.2
CN(C)CC/C=C1/c2cc(F)ccc2CSc2ccc(F)cc21 | 4 | · | 3.5 | 3.4 | -2 | 0.66 | 9.7
CC1=C(C(=O)OCc2ccccc2)C(c2ccc(Cl)cc2)NC(=O)N1C (centres undefined) | 10 | i | 1.2 | -0.4 | 1 | 0.69 | -5.2
CCOC(=O)C(C)(C)Sc1ncnc2nc[nH]c12 | 10 | · | 1.1 | 2.9 | -7 | 0.66 | 3.8
CCNC(=O)COC(=O)C1CCN(S(=O)(=O)c2ccc3c(c2)OCCO3)CC1 | 1 | i | 3.5 | -0.7 | 2 | 0.65 | 0.9
O=C(Nc1nccs1)c1ccc(NC(=O)C2CC=CCC2C(=O)O)cc1 (centres undefined) | 2 | · | 2.4 | 3.2 | 12 | 0.7 | -2.0
COCCN1C(=O)N(c2cccc(OC)c2)C(=O)C1CC(=O)Nc1ccc(OC)cc1 (centres undefined) | -9 | i | 3.8 | -1.5 | -8 | 0.66 | 6.4
CCOc1ccc2c(c1)c1nnc(SCC(=O)NC3CC3)nc1n2C | -1 | i | 5.5 | 11 | -1 | 0.68 | -6.9
O=S(=O)(c1cccc(Cl)c1)N1CN(CC2CCCO2)c2nc3ccccc3nc21 (centres undefined) | 2 | i | 0.0 | -2.2 | 2 | 0.66 | -0.4
Cc1cccc(NC(=O)c2nc[nH]c2C(=O)NC2CCN(C(=O)OC(C)(C)C)CC2)c1 | 1 | i | · | -0.4 | -4 | · | 0.0
CCOc1ccccc1N1CCN(CC(O)COCc2cccs2)CC1 (centres undefined) | 3 | i | 3.7 | -1.4 | 22 | 0.7 | 14
COCCN(C(=O)COC(=O)COc1ccc2c(c1)CCC2)c1c(N)n(Cc2ccccc2)c(=O)[nH]c1=O | -4 | i | 0.6 | 0.7 | -3 | 0.66 | -4.3
CCN(C(=O)CCN1C(=O)c2ccccc2S1(=O)=O)c1ccccc1 | 0 | i | · | 0.4 | -5 | · | 5.3
COc1ccc(NC(=O)NC2CCCc3ccccc32)cc1OC (centres undefined) | 17 | i | 2.2 | 2.1 | -5 | 0.71 | 3.0
CCOC(=O)c1ccccc1NC(=O)COC(=O)CSC(C)C(=O)Nc1cc(C)on1 (centres undefined) | 0 | i | 1.5 | 1.0 | 2 | 0.7 | 0.8
O=C(Nc1nccs1)c1ncc(Cl)c(Cl)c1Cl | 1 | i | 3.4 | 21 | · | 0.69 | 3.2
CC(=O)c1c(C)nc2ccc(Cl)cn12 | 1 | · | 1.4 | -3.4 | -14 | 0.62 | -1.5
CN1CCN(NC(=O)c2ccc(Cl)s2)CC1 | 4 | i | 2.8 | 1.7 | 51 | 0.67 | 1.8
COc1ccccc1CNCC(=O)Nc1ccccc1-n1cccc1 | 3 | i | -0.4 | -3.3 | 0 | 0.69 | 2.3
Cc1cc(C)nc(/N=C(\N)Nc2cc([N+](=O)[O-])ccc2C)n1 | -2 | · | · | -2.7 | -10 | · | 4.0
O=C(COc1ccc(-c2nnc(N3CCCCC3)c3ccccc23)cc1)N1CCCCC1 | 6 | · | 3.4 | -0.2 | 4 | 0.66 | 2.0
O=C(Nc1csc([N+](=O)[O-])c1)Nc1ccccc1Cl | 8 | i | 3.8 | -2.6 | -2 | 0.65 | -8.1
CCCOc1ccc(CN(CCC#N)C(=S)NC(=O)c2ccccc2)cc1 | 2 | · | 3.3 | 5.8 | -12 | 0.74 | -8.7
O=C(NC1CCCCCC1)c1c(O)c2ccccc2[nH]c1=O | -2 | · | 4.4 | -3.1 | -2 | 0.7 | 2.5
O=C(NCCN1CCOCC1)C1CCCN(S(=O)(=O)c2ccc(F)cc2)C1 (centres undefined) | -2 | i | 2.4 | -1.8 | -13 | 0.71 | -1.1
CC(C)C1Oc2ccccc2N(CC(=O)N2CCOCC2)C1=O (centres undefined) | -3 | i | 2.4 | 1.0 | -1 | 0.69 | 2.1
CCN(c1ccccc1)S(=O)(=O)c1ccc(C(=O)Nc2nnc(COC)o2)cc1 | 4 | · | 1.5 | -1.8 | 6 | 0.81 | -0.6
CCN(CC)CCC(C)OC(c1ccccc1)c1ccccc1 (centres undefined) | 14 | i | 2.7 | -1.0 | 27 | 0.65 | 0.6
CN1CCN(CCCC(=O)c2ccc(F)cc2)CC1 | 5 | · | 6.4 | 1.3 | -5 | 0.72 | -4.0
CCCCCn1c(=O)c(C(=O)OCC)c(Cl)c2ccccc21 | 1 | i | -6.4 | 1.3 | 2 | 0.68 | 6.6
COc1ccc(CSC2=NCCN2)cc1Br | 1 | i | 2.5 | -0.6 | 99* | 0.66 | 1.0
CC1CCN(S(=O)(=O)c2cccc(S(=O)(=O)N3CCOCC3)c2)CC1 | 2 | · | 2.4 | -1.9 | -15 | 0.71 | -2.1
O=C(COc1ccc(S(=O)(=O)N2CCOCC2)cc1)NC1CCCCC1 | 10 | i | 2.3 | -3.3 | · | 0.72 | 10
O=C1S/C(=C\c2ccc(N3CCOCC3)o2)C(=O)N1Cc1ccc(F)cc1 | -96 | · | 5.0 | 130 | 35 | 0.72 | 3.9
COc1ccccc1NC(=O)CSc1nnc(Cc2cccs2)n1C | 9 | i | 4.4 | -0.5 | 5 | 0.67 | -1.1
CCNC(=S)NNC(=O)c1csc(CC)c1 | -5 | · | 5.0 | -1.6 | 33 | 0.7 | 1.8

New compounds follow
SMILES | B2AR ag | FGF22 binding | UCH37 inh | HNF4A DNA FP | ALR inh | Ecoli growth | LANA-H2B inh
CC(C)c1nnc2n1N=C(c1ccc(Cl)cc1)CS2 | -11 | i | 3.8 | -0.5 | -6 | 0.66 | -1.0
CCc1ccccc1NC(=O)CN(C)C(=O)COC(=O)c1cccnc1Cl | -2 | i | 0.5 | 0.4 | -3 | 0.69 | 2.4
CCOc1cc(NC(=O)CCl)c(OCC)cc1NC(C)=O | 1 | i | 4.1 | -0.3 | -7 | 0.7 | -1.6
CC(C)C[C@H](NC(=O)c1[nH]cnc1C(=O)N[C@@H](C)C(=O)OC(C)(C)C)C(=O)OCc1ccccc1 | -1 | · | 1.9 | 3.9 | -4 | · | -0.8
COc1ccccc1C(=O)NC(=S)Nc1cccc2cc(O)ccc12 | 13 | i | 6.6 | 4.0 | -19 | 0.68 | -3.5
CCOC(=O)c1c(O)c2ccccc2n(C)c1=O | 2 | i | 0.1 | -1.4 | -10 | 0.66 | -4.5
O=C(NC1CCCCNC1=O)c1ccccc1 (centres undefined) | -10 | i | 2.3 | 2.4 | -4 | 0.66 | 2.3
O=C(O)CSCc1cnn(-c2ccccc2)c1-n1cccc1 | 5 | · | 4.8 | 8.1 | 26 | 0.69 | -0.7
COc1ccc(-c2ccnc(SCC(=O)c3ccc(OC)c(OC)c3)n2)cc1 | -1 | · | 0.9 | 5.1 | -15 | 0.71 | -1.8
COc1ccc(OCCOC(=O)CNC(=O)c2cccc(C)c2)cc1 | 3 | i | 1.3 | -2.1 | -7 | 0.6 | 1.2
COc1cccc(NC(=S)NCc2ccc(F)cc2)c1 | -5 | i | 3.1 | 0.4 | 26 | 0.64 | -5.0
COc1ccccc1NC(=O)N1CCCC1C(=O)NCC1CCCO1 (centres undefined) | 2 | i | 7.6 | 2.4 | -7 | 0.69 | -0.9
O=C(Nc1cccc2ccccc12)/C(Cl)=C/c1ccccc1 | -10 | · | 2.2 | 1.5 | 2 | 0.74 | -13
COc1ccc(C(NC(=O)CN2CCCCCC2)c2ccc(OC)cc2)cc1 | -4 | i | 3.9 | -1.2 | -3 | 0.69 | -0.8
CCC(C)n1cnc2c(c1=O)c1nc3ccccc3nc1n2-c1ccc2c(c1)OCCO2 (centres undefined) | -2 | · | -13 | -4.1 | -4 | 0.69 | 6.4
COc1cc(NC(=O)c2cc(-c3ccccc3Cl)on2)cc(OC)c1OC | 13 | i | 1.8 | 2.6 | -17 | 0.62 | -1.0
Cc1cc(C)c(C#N)c(SCS(=O)c2ccc(C(C)(C)C)cc2)n1 (centres undefined) | 0 | · | -0.1 | 2.5 | -5 | 0.7 | -3.5
CCN1CCN(CC(=O)Nc2cc(F)ccc2C)CC1 | -6 | · | 0.1 | -1.6 | -3 | 0.69 | -4.1
Cc1nc(NC(=O)CSc2nnc(C3CC3)n2C)sc1C(=O)N(C)C | 1 | · | 1.7 | -0.8 | -7 | 0.72 | 7.0
CN1CCN(S(=O)(=O)c2ccc(Sc3nnc(-c4cccs4)n3-c3ccccc3)nc2)CC1 | 6 | · | 2.0 | 1.7 | -16 | 0.73 | -0.4
